Assay outcomes deposited in PubChem BioAssay by National Center for Advancing Translational Sciences (NCATS).
HPGD inh: blocks human HPGD enzyme activity | purified HPGD, NADH fluorescence kinetic, PGE2 substrate | Potency, µM, for the others: top-dose activity change, negative = inhibition, most hits filed as inhibitors | 150,000 tested, 4.3% active | P15428; active = well fitted inhibition curve with a large enough effect (not every such curve was filed as active); inconclusive = small, poorly fitted or top-dose-only effect, or another doubt; inactive = no such curve, though single readings can be large or run the other way;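 further: top concentration of the series not given in the record; plate controls included wells without enzyme; inactives centre near -10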
Target sequence (P15428 whole entry, looked up): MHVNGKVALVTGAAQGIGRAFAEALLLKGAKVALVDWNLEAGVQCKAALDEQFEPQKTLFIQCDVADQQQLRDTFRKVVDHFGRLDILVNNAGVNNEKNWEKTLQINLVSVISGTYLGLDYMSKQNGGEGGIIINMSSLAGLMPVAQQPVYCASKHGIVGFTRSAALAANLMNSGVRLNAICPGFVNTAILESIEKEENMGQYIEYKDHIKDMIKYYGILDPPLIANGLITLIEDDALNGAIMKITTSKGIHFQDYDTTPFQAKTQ
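NADH formation kinetics: reaction with 30 uM PGE2 and 1 mM NAD+ (final), 20 nM enzyme, Tris-HCl pH 8 with Tween 20, after 15 min compound preincubation at room temperature. Fluorescence change, last versus first of five reads.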
The depositor's hits bear a star; & = joins results of further samples. On the % scale 0 is the no-effect control and ±100 the full control effect; potency means the concentration at half of the fitted maximal effect.

Results for COC(=O)C1=C(C)N(CCc2cc(OC)c(OC)c(OC)c2)C(=O)N[C@H]1c1cccs1 ?
HPGD inh: -4%&0%

Results for N#Cc1c(N)nc(SCc2ccncc2)c(C#N)c1-c1cccs1 ?
HPGD inh: inconclusive

Results for COc1ccc(CCNC(=O)CN2CCN(c3cccc(Cl)c3)CC2)cc1OC ?
HPGD inh: -7%

What do the screens show for `O=c1[nH]c2ccc(NC(=S)Nc3ccc(Cl)cc3Cl)cc2[nH]1`?
HPGD inh: -12%

Results for O=C(NCc1cccnc1)C1CCCN(Cc2cnn(-c3ccccc3)c2-n2cccc2)C1 (stereo not given) ?
HPGD inh: 2%

What do the screens show for `O=C(CN1CCN(Cc2ccc(Cl)cc2)C1=O)NCCN1CCCC1`?
HPGD inh: 3%

Results for CCN1CCCC1CNCc1ccc(Cl)cc1Cl (stereo not given) ?
HPGD inh: -3%

Results for CCOC(=O)c1cc2sc(C)cc2n1CC(=O)Nc1cccc(C)c1C ?
HPGD inh: -11%

What do the screens show for `O=C(NCc1ccccc1)NC1(C(=O)N2CCCC2)CCCCC1`?
HPGD inh: -9%

Results for COc1ccc(CNC(=O)C2CSC(c3ccc(OC)cc3)N2C(C)=O)cc1 (stereo not given) ?
HPGD inh: -14%

Results for O=C(Nc1cccnc1)C1COc2ccccc2O1 (stereo not given) ?
HPGD inh: inconclusive

What do the screens show for `O=C(c1nc2nc(-c3cccs3)cc(C(F)(F)F)n2n1)N1CCN(Cc2ccccc2)CC1`?
HPGD inh: inconclusive

Some of these compounds in order of molar mass, highest first.
What do the screens show for `O=C(c1nc2nc(-c3cccs3)cc(C(F)(F)F)n2n1)N1CCN(Cc2ccccc2)CC1`?
HPGD inh: inconclusive

Results for COC(=O)C1=C(C)N(CCc2cc(OC)c(OC)c(OC)c2)C(=O)N[C@H]1c1cccs1 ?
HPGD inh: -4%&0%

What do the screens show for `O=C(NCc1ccccc1)NC1(C(=O)N2CCCC2)CCCCC1`?
HPGD inh: -9%

Continued:
What do the screens show for `Cc1nc2cc(NC(=O)NCc3ccccc3)ccc2o1`?
HPGD inh: -17%

What do the screens show for `CCOC(=O)C[N+](CC)(CC)CC#Cc1ccccc1`?
HPGD inh: -1%

Results for CN(C)c1ccc(CN(C(=O)c2ccco2)C2CCS(=O)(=O)C2)cc1 (stereo not given) ?
HPGD inh: -11%

What do the screens show for `COc1ccc2c(c1OC)C(=O)OC2CC(=O)c1ccc2c(c1)OCO2` (stereo not given)?
HPGD inh: -14%

How did O=C(Nc1ccc2nn(-c3ccccc3)nc2c1)c1ccc2c(c1)OCO2 do in these assays?
HPGD inh: -22%

How did CC(C)COc1cc(=O)[nH]c(SCC(C)C)n1 do in these assays?
HPGD inh: -3%

What do the screens show for `Cc1ccc(C(=O)Oc2coc(CSc3nnc(NC(=O)c4cccs4)s3)cc2=O)cc1C`?
HPGD inh: inconclusive

How did Cc1ccc(-c2ccc(C3C(C#N)=C(N)Oc4n[nH]c(C)c43)o2)cc1 (stereo not given) do in these assays?
HPGD inh: -27%

What do the screens show for `COC(=O)c1ccccc1NC(=O)COC(=O)c1ccc(C)c(NC(=O)c2ccco2)c1`?
HPGD inh: -22%

Results for CCNc1cc(=O)n(C)c(=O)n1C ?
HPGD inh: -2%

What do the screens show for `O=C(Nc1nncs1)c1cccnc1Cl`?
HPGD inh: -7%

Results for O=C(c1cc(Cl)cc(Cl)c1)N1CCC(=O)N(C(COCc2ccccc2)Cc2ccccc2)CC1 (stereo not given) ?
HPGD inh: -5%

How did Cc1ccc(C(=O)CSc2nnc(COc3cccc(C)c3)o2)cc1 do in these assays?
HPGD inh: -16%

What do the screens show for `Cc1cc(NC(=O)/C=C/c2ccccc2Cl)n(-c2nc3ccccc3[nH]2)n1`?
HPGD inh: -4%

What do the screens show for `COc1ccc2[nH]c(=O)c(-c3noc(-c4ccccc4)n3)cc2c1`?
HPGD inh: inconclusive

Results for CC1(C)CC2CC(C)(CN2C(=O)COC(=O)Cn2[nH]c(=O)c3ccccc3c2=O)C1 (stereo not given) ?
HPGD inh: -11%

Results for N#Cc1nc(Cc2ccccc2)oc1N1CCC(C(N)=O)CC1 ?
HPGD inh: -8%

How did COC(=O)c1nc2cc(C)ccn2c1F do in these assays?
HPGD inh: -18%

How did COc1ccccc1NC(=O)CN(Cc1ccccc1)S(C)(=O)=O do in these assays?
HPGD inh: 4%

What do the screens show for `CC(=O)N1CCc2cc(S(=O)(=O)NCCC(=O)Nc3cccc(C)c3)ccc21`?
HPGD inh: 6%

How did Cc1cccn2c(=O)c3cc(C(=O)NCCN4CCOCC4)c(=N)n(CCc4ccccc4)c3nc12 do in these assays?
HPGD inh: inconclusive

Results for CSC1=NSC2=NC(=O)/C(=C\c3coc4ccccc4c3=O)C(=N)N12 ?
HPGD inh: 32µM*

How did CCOC(=O)c1cc(-c2cccc(C(F)(F)F)c2)nc2nc(SC)[nH]c(=O)c12 do in these assays?
HPGD inh: inconclusive

Results for CC(C)N(CCCNC(=O)C1CCN(S(=O)(=O)N2CCOCC2)CC1)Cc1ccccc1 ?
HPGD inh: -7%

Retrieved one by one from above (3):
How did CC(C)COc1cc(=O)[nH]c(SCC(C)C)n1 do in these assays?
HPGD inh: -3%

Results for COc1ccc(CNC(=O)C2CSC(c3ccc(OC)cc3)N2C(C)=O)cc1 (stereo not given) ?
HPGD inh: -14%

Results for COc1ccc(CCNC(=O)CN2CCN(c3cccc(Cl)c3)CC2)cc1OC ?
HPGD inh: -7%

Returning to the listing with the two entries that preceded the break.
How did CCOC(=O)c1cc(-c2cccc(C(F)(F)F)c2)nc2nc(SC)[nH]c(=O)c12 do in these assays?
HPGD inh: inconclusive

Results for CC(C)N(CCCNC(=O)C1CCN(S(=O)(=O)N2CCOCC2)CC1)Cc1ccccc1 ?
HPGD inh: -7%

Results for Cc1cc(-c2ccccc2)n(-c2cc(N/N=C/c3ccccc3O)ncn2)n1 ?
HPGD inh: -12%

Results for CCOC(=O)N1C2=NC(C(=O)OC)=C(C(=O)OC)[C@@H]3N(C)c4ccccc4[C@]23C[C@H]1C(=O)OC ?
HPGD inh: -7%

How did CC(=O)C1=NN(c2ccccc2)C(c2cccs2)N1c1ccccc1 (stereo not given) do in these assays?
HPGD inh: -17%

Results for CCOc1ccccc1NC(=O)Cn1cnc2c(nnn2-c2cccc(OC)c2)c1=O ?
HPGD inh: -22%

Results for CCCCNC(=O)c1onc(CSc2cccc(F)c2)c1C(=O)O ?
HPGD inh: inconclusive

Results for O=c1c2ccccc2cnn1-c1ccc(Br)cc1 ?
HPGD inh: -6%

What do the screens show for `CCN(CC)c1ncnc2sc(C(=O)N3CCN(c4ccc(OC)cc4)CC3)c(C)c12`?
HPGD inh: -5%

What do the screens show for `CCOC(=O)N1CCN(c2c(NCCc3ccccc3)c(=O)c2=O)CC1`?
HPGD inh: -2%

Results for CN1CCN(C(=O)c2ccc(-n3c(=O)c(=O)[nH]c4ccccc43)cc2)CC1 ?
HPGD inh: -2%

What do the screens show for `O=c1oc2ccccc2n1CCCOc1ccccc1`?
HPGD inh: -21%

What do the screens show for `O=C(NNc1ccc([N+](=O)[O-])cc1)C12CC3CC(CC(C3)C1)C2`?
HPGD inh: -6%

How did CNC(=O)C1=C(C)Nc2nc3ccccc3n2C1c1cccc(OC)c1 (stereo not given) do in these assays?
HPGD inh: -20%

How did CCCCSc1ccc2nc(-c3ccc(C#N)cc3)cn2c1 do in these assays?
HPGD inh: -8%

How did Cc1c(C(=O)N2CCOCC2)oc2ccc(S(=O)(=O)N3CCCC3)cc12 do in these assays?
HPGD inh: -13%

Results for CCOc1ccc(NS(=O)(=O)c2ccc(OCC)c3ncccc23)cc1 ?
HPGD inh: -9%

What do the screens show for `O=C1C2CC=C(Cl)CC2C(=O)N1CCCCCCN1C(=O)C2CC=C(Cl)CC2C1=O` (stereo not given)?
HPGD inh: 16µM*

Results for COCCn1c(C)cc(C(=O)COC(=O)c2ccc(-n3nc(C)cc3C)cc2)c1C ?
HPGD inh: -6%

Results for CCCCOC(=O)c1ccc(NC(=O)c2c(Cl)ccc(Cl)c2OC)cc1 ?
HPGD inh: -11%

What do the screens show for `CCc1ccccc1NC(=O)CN(C)C(=O)CSc1nnc(Nc2ccc(C)cc2)s1`?
HPGD inh: -1%

Results for COC(=O)[C@@]1(Cc2ccc(OC)cc2)[C@H]2c3cc(C(=O)N(C)C)n(CCc4ccccn4)c3C[C@H]2CN1C(=O)c1ccccc1 ?
HPGD inh: -7%

Results for Cc1ccc(C2c3c(oc4ccc(Cl)cc4c3=O)C(=O)N2CCCN2CCOCC2)o1 (stereo not given) ?
HPGD inh: inconclusive

What do the screens show for `O=C(NCCN1CCOCC1)c1ccc(Cl)cc1[N+](=O)[O-]`?
HPGD inh: -9%

Results for CCC1CCCCN1CCNS(=O)(=O)c1ccc2c(c1)CCN2C(C)=O (stereo not given) ?
HPGD inh: -8%

How did COc1cc(CNC(=O)c2ccc(Cn3nc(C)c(Cl)c3C)o2)cc(OC)c1 do in these assays?
HPGD inh: -5%

Results for COc1cc(C)c(S(=O)(=O)NCc2cccs2)cc1C ?
HPGD inh: -13%

How did S=C(c1ccc(-c2cccc(Cl)c2)o1)N1CCOCC1 do in these assays?
HPGD inh: 22µM*

How did CCOc1ccc(C(=O)c2ccc(OCC)c(N)c2)cc1N do in these assays?
HPGD inh: -5%

Results for O=C(Nc1ccc(N=Nc2ccccc2)cc1)c1cccc(Cl)c1 ?
HPGD inh: 2%

What do the screens show for `COc1ccccc1N1CCN(S(=O)(=O)Cc2ccccc2Cl)CC1`?
HPGD inh: -13%

What do the screens show for `Cc1cc(C)n(-c2ccc(C(=O)Nc3ccc(N4CCOCC4)cc3)cc2)n1`?
HPGD inh: inconclusive

How did O=C(CSc1nnnn1-c1cccc2c1CCCC2)N1CCCC1 do in these assays?
HPGD inh: -24%

Results for Cc1ccc(C(=O)NC(NC(=O)c2ccc(C)cc2)C(Cl)Cl)cc1 ?
HPGD inh: -2%

Results for CN(C)CCNC(=O)c1ccccc1 ?
HPGD inh: -10%

Results for CCN1CCc2c(C#N)c(N3CCCCC3)nc(NCc3ccccc3)c2C1 ?
HPGD inh: -24%

How did O=C1CSC(c2cccc(F)c2)N1c1ccc(O)cc1 (stereo not given) do in these assays?
HPGD inh: -8%

How did CCCC(NS(=O)(=O)c1ccc(OC)cc1)C(=O)O (stereo not given) do in these assays?
HPGD inh: -2%

Results for O=C(CSCc1ccc(F)cc1)N1CCN(c2ccccc2)CC1 ?
HPGD inh: -7%

Results for Cc1ccc(SC(C)C(=O)Nc2ccccc2-c2ccccc2)cc1 (stereo not given) ?
HPGD inh: -3%

Results for Cc1cc(C)cc(-n2nnc(C(=O)NCc3ccc(Cl)cc3)c2N)c1 ?
HPGD inh: -8%

What do the screens show for `COC(=O)C1=C(C(=O)OC)[C@@H]2N(C)c3ccc(OC)cc3[C@@]23C[C@@H](C(=O)OC)N(C(=O)CC(C)C)C3=N1`?
HPGD inh: -18%

How did Cc1ccc(OC(=O)c2cc3ccccc3o2)cc1 do in these assays?
HPGD inh: -23%

How did CCOC(=O)COc1ccc(N)cc1CC(NC(C)=O)(C(=O)OCC)C(=O)OCC do in these assays?
HPGD inh: -7%

What do the screens show for `Cc1cccc(Nc2nc(NCCCN3CCOCC3)nc(N)c2[N+](=O)[O-])c1`?
HPGD inh: -14%

Results for CC(C)Sc1nc2c(cnn2-c2ccc(F)cc2)c(=O)[nH]1 ?
HPGD inh: -13%

How did CCOC(=O)/C(C)=N/NC(C)=O do in these assays?
HPGD inh: -3%

Results for Cc1ccc(S(=O)(=O)NC(=O)Nc2nnc(C3CC3)s2)cc1 ?
HPGD inh: 3%

How did CC1(C)Cc2ccccc2C(/C(=N/O)C(N)=O)=N1 do in these assays?
HPGD inh: -8%

What do the screens show for `O=C(COc1ccccc1)Nc1ccc2c(c1)nc1n2CCSC1`?
HPGD inh: -20%

Copied from above (two entries):
What do the screens show for `Cc1cccc(Nc2nc(NCCCN3CCOCC3)nc(N)c2[N+](=O)[O-])c1`?
HPGD inh: -14%

Results for CC(C)Sc1nc2c(cnn2-c2ccc(F)cc2)c(=O)[nH]1 ?
HPGD inh: -13%

(list continues)
What do the screens show for `Cc1ccccc1-n1nnnc1SCC(=O)Nc1ccc(S(=O)(=O)N2CCCC2)cc1`?
HPGD inh: -4%

Results for O=C(Nc1ccc(Br)cc1)/C(=C/c1cccc([N+](=O)[O-])c1)NC(=O)C1CCCCC1 ?
HPGD inh: -5%

What do the screens show for `CCc1ccc2[nH]c(=O)c(C(c3nnnn3CCOC)N3CCN(c4ccc(F)cc4)CC3)cc2c1` (stereo not given)?
HPGD inh: -11%

Results for CCCn1nc2cc(C(=O)NCc3ccc4c(c3)OCO4)ccc2c1OCC ?
HPGD inh: inconclusive

Results for Cn1cccc1C(=O)NC(=O)COC(=O)c1ccccc1Sc1ccccc1C#N ?
HPGD inh: -7%

Results for Cc1ccc(NC(=O)c2ccccc2NS(=O)(=O)c2ccc(F)cc2)cc1S(=O)(=O)N1CCCCC1 ?
HPGD inh: inconclusive

Results for O=C1C(SC(F)(F)C(F)F)=C(C(F)(F)F)OC2C3C=CC(C3)C12 (stereo not given) ?
HPGD inh: -1%

Results for COc1cc(NC(=O)c2ncn[nH]2)cc(OC)c1OC ?
HPGD inh: inconclusive

How did Cc1nnc(SCCn2c(N3CC(C)CC(C)C3)nc3c2c(=O)n(C)c(=O)n3C)s1 (stereo not given) do in these assays?
HPGD inh: 3%

Results for Clc1ccccc1Cn1nnc2c(Nc3ccccc3)ncnc21 ?
HPGD inh: -23%

How did Cc1nc(N2CCOCC2)nc(OC(C)C)c1[N+](=O)[O-] do in these assays?
HPGD inh: -1%

Results for Cc1c(Cl)cccc1NC(=S)NC1CCN(Cc2ccccc2)CC1 ?
HPGD inh: -2%

How did COc1cc(NS(=O)(=O)c2ccc(NS(=O)(=O)c3ccccc3)cc2)nc(OC)n1 do in these assays?
HPGD inh: -9%

What do the screens show for `CC1CCN(C(=O)CN(C)S(=O)(=O)c2cccc3nsnc23)CC1`?
HPGD inh: -17%

An excerpt (hit frequency here may not be typical).
